Compound activity deposited in PubChem by SRMLSC.
H5N1 antiviral – antiviral screen in MDCK cells, H5N1 avian flu. cytopathic effect, luminescence, 72 h; stronger effect = higher value; no value below 0 was filed and about half of the inactive calls have no number; reference of the scale not given here. inhibition, % at 50 µM. actives 0.07% (n = 96,000). AID 740; in the data active = inhibition above about 25%
Starred values were filed as active, the others as inactive. This is a subset. The share of hits here may be higher or lower than overall.

`CCCCNS(=O)(=O)c1ccc(OC)cc1` gave H5N1 antiviral 0.3.
Screening O=[N+]([O-])c1ccc(N2CCCC2)cc1NCc1ccccc1 returned H5N1 antiviral 0.1.
For CCOC(OCC)P(=O)(c1ccccc1)c1ccccc1 the results were H5N1 antiviral 0.4.
For O=C(c1cccs1)N1CCN(C(=O)c2ccco2)c2ccccc2C1 the results were H5N1 antiviral 0.6.
CCCCCCS(=O)Cc1ccccc1 (configuration not stated) was read as H5N1 antiviral inactive.
For COc1ccc(CNC(=O)c2ccc(-c3ccccc3)cc2)cc1 the results were H5N1 antiviral 0.8.
Screening Cn1nnnc1P(=O)(c1ccccc1)c1ccccc1 returned H5N1 antiviral 1.4.
`Cc1cccc(-n2ncc3c(NCc4cccs4)ncnc32)c1` gave H5N1 antiviral inactive.
`Cc1cc(C)n2cc(CSCc3ccco3)nc2n1` gave H5N1 antiviral 12.
`COC(=O)Cn1ncn2c(cc3oc(C)cc32)c1=O` gave H5N1 antiviral 0.1.
COc1cccc(N2CCN(Cc3nc(N)nc(Nc4ccccc4)n3)CC2)c1 was read as H5N1 antiviral inactive.
`CCOc1ccc(OCc2ccc(C(=O)N3CCCC3)o2)cc1` gave H5N1 antiviral inactive.
O=C(NCCO)c1ccc2nc(-c3ccco3)c(-c3ccco3)nc2c1 was read as H5N1 antiviral 1.4.
`CCC(=O)Nc1ccc2nc(SCC(=O)N3CCCC3)sc2c1` gave H5N1 antiviral inactive.
For COc1cc(C(=O)Oc2cccc(C)c2)cc(OC)c1OC the results were H5N1 antiviral inactive.
Screening Nc1c(S(=O)(=O)c2cccc(Cl)c2)c2nc3ccccc3nc2n1/N=C/c1ccc(O)c(O)c1 returned H5N1 antiviral inactive.
`COc1ccc(-c2n[nH]c(C)c2-c2ccc(OC)c(OC)c2)c(O)c1` gave H5N1 antiviral inactive.
Screening CC(CNC(=O)c1ccc(Br)o1)NC(=O)c1ccc(Br)o1 (configuration not stated) returned H5N1 antiviral inactive.
`Cc1ccc(C(=O)CNc2nc3c(c(=O)[nH]c(=O)n3C)n2Cc2ccccc2)cc1` gave H5N1 antiviral 0.0.
CCCNC(=O)CN(Cc1ccccc1F)S(=O)(=O)c1ccc(C)cc1 was read as H5N1 antiviral 0.4.
Screening Cc1ccc(Oc2nc(C(F)(F)F)nc3ccccc23)cc1 returned H5N1 antiviral inactive.
CCn1c(CSCc2ccc(F)cc2)nnc1SCC(=O)N1CCN(c2ccccc2)CC1 was read as H5N1 antiviral 1.6.
N#C/C(C(=O)NCc1ccccc1)=C1\SC(CCO)C(=O)N1c1ccccc1 (configuration not stated) was read as H5N1 antiviral 0.6.
Screening Cc1ccc(S(=O)(=O)N(C)Cc2ccc(-c3nnco3)cc2)cc1 returned H5N1 antiviral 1.1.
For CCOC(=O)C1=C(C)NC(=O)NC1c1c(OCC(=O)N2CCCCC2)ccc2ccccc12 (configuration not stated) the results were H5N1 antiviral inactive.
For CCOC(=O)N1CCN(C(=O)CCC(=O)N2CCOc3ccc(C)cc32)CC1 the results were H5N1 antiviral inactive.
C=CCc1ccccc1OCC(O)CNC (configuration not stated) was read as H5N1 antiviral inactive.
`COCCN1C=C(C(=O)OC)C(c2cc3c(cc2Br)OCO3)C(C(=O)OC)=C1` gave H5N1 antiviral 0.9.
COc1ccccc1NC(=O)CSc1nnc(COc2ccc(Cl)cc2)n1Cc1ccco1 was read as H5N1 antiviral 0.3.
`COc1ccc(-n2nnc3c(SCC(=O)Nc4ccc5c(c4)OCCO5)ncnc32)cc1` gave H5N1 antiviral 1.6.
Cc1nn(CC(=O)Nc2ccc(C(=O)N3CCCCC3)cc2)c(=O)c2ccccc12 was read as H5N1 antiviral inactive.
For O=C(CSc1c[nH]c2ccccc12)N1CCOCC1 the results were H5N1 antiviral inactive.
`CCOCCCNC(=O)c1c(N)n(-c2ccc(S(N)(=O)=O)cc2)c2nc3ccccc3nc12` gave H5N1 antiviral 0.2.
For FC(F)(F)c1cc(-c2ccco2)nc(NCCc2ccccc2)n1 the results were H5N1 antiviral inactive.
Screening COC(=O)c1cccc(NC(=O)NC2CCCN2S(=O)(=O)c2ccc(Cl)cc2)c1 (configuration not stated) returned H5N1 antiviral inactive.
CC(C)Cc1cc(C(=O)Nc2sc3c(c2C#N)CCC3)no1 was read as H5N1 antiviral inactive.
O=C(c1ccco1)N1CCN(C(=O)C(Cc2ccccc2)NS(=O)(=O)c2cccs2)CC1 (configuration not stated) was read as H5N1 antiviral 0.5.
`COc1cc2c3c(c1)C1(C(=O)N3C(C)(C)C=C2C)C(C#N)=C(N)Oc2cc(C)oc(=O)c21` (configuration not stated) gave H5N1 antiviral inactive.
CCOC(=O)c1nn(-c2ccccc2F)c(C)c1C(C)=O was read as H5N1 antiviral inactive.
`CC1(C)CC(NC(=O)c2ccccc2Cl)CC(C)(C)N1` gave H5N1 antiviral inactive.

Entries shown so far with a thiophene ring, fused or not, in the order listed:
For O=C(c1cccs1)N1CCN(C(=O)c2ccco2)c2ccccc2C1 the results were H5N1 antiviral 0.6.
`Cc1cccc(-n2ncc3c(NCc4cccs4)ncnc32)c1` gave H5N1 antiviral inactive.
CC(C)Cc1cc(C(=O)Nc2sc3c(c2C#N)CCC3)no1 was read as H5N1 antiviral inactive.
O=C(c1ccco1)N1CCN(C(=O)C(Cc2ccccc2)NS(=O)(=O)c2cccs2)CC1 (configuration not stated) was read as H5N1 antiviral 0.5.

The main list resumes with the 7 entries that preceded the break.
For FC(F)(F)c1cc(-c2ccco2)nc(NCCc2ccccc2)n1 the results were H5N1 antiviral inactive.
Screening COC(=O)c1cccc(NC(=O)NC2CCCN2S(=O)(=O)c2ccc(Cl)cc2)c1 (configuration not stated) returned H5N1 antiviral inactive.
CC(C)Cc1cc(C(=O)Nc2sc3c(c2C#N)CCC3)no1 was read as H5N1 antiviral inactive.
O=C(c1ccco1)N1CCN(C(=O)C(Cc2ccccc2)NS(=O)(=O)c2cccs2)CC1 (configuration not stated) was read as H5N1 antiviral 0.5.
`COc1cc2c3c(c1)C1(C(=O)N3C(C)(C)C=C2C)C(C#N)=C(N)Oc2cc(C)oc(=O)c21` (configuration not stated) gave H5N1 antiviral inactive.
CCOC(=O)c1nn(-c2ccccc2F)c(C)c1C(C)=O was read as H5N1 antiviral inactive.
`CC1(C)CC(NC(=O)c2ccccc2Cl)CC(C)(C)N1` gave H5N1 antiviral inactive.
For CCCC(=O)Nc1ccccc1NC(=O)c1cc(OC)c(OC)c(OC)c1 the results were H5N1 antiviral 1.1.
`COc1ccc(OC)c(NC(=O)C2CC(=O)N(c3ccccc3)C2)c1` (configuration not stated) gave H5N1 antiviral inactive.
CC(C)c1nccn1CCC(=O)O was read as H5N1 antiviral inactive.
For CC(C)(CNC(=O)c1ccc([N+](=O)[O-])c(Cl)c1)CNC(=O)c1ccc([N+](=O)[O-])c(Cl)c1 the results were H5N1 antiviral inactive.
For Cc1ccc(C(=O)COC(=O)c2n[nH]c(=O)c3ccccc23)cc1 the results were H5N1 antiviral 0.4.
Screening CCN1CCc2nc(NC(=O)c3ccc4c(c3)OCCO4)sc2C1 returned H5N1 antiviral 1.2.
CC1CC(c2ccccc2)n2nc(NC(=O)CCc3ccccc3)nc2N1 (configuration not stated) was read as H5N1 antiviral inactive.
Screening CC(C)CC(=O)NC(=S)Nc1nc(-c2cccc3ccccc23)cs1 returned H5N1 antiviral 1.9.
For CCN1CCCC1CNC(=O)CCNC(=O)c1cc(OC)c(OC)c(OC)c1 (configuration not stated) the results were H5N1 antiviral 0.2.
O=C(OCC#CCSc1nnc(-c2ccccc2)o1)c1cccs1 was read as H5N1 antiviral inactive.
`CCOc1ccc(-c2nnc(SCC(=O)N3CCOCC3)o2)cc1` gave H5N1 antiviral inactive.
COc1ccc(-c2cc(C(F)(F)F)nc(NCc3ccco3)n2)cc1OC was read as H5N1 antiviral inactive.
For CCSc1c(-c2ccccc2)nc2c(C)cccc2c1C(=O)O the results were H5N1 antiviral 0.1.
`Cn1cccc1Cc1nnc(SCC(=O)NC2CCCC2)n1-c1ccc(F)cc1` gave H5N1 antiviral 0.3.
For COc1ccc(C2C3=C(CCCC3=O)Nc3nc(C(F)(F)F)nn32)c(OC)c1OC (configuration not stated) the results were H5N1 antiviral 0.2.
For O=C(NC1CCCCC1)N1CCCCCC1 the results were H5N1 antiviral 0.9.
CS(=O)(=O)N(CC(=O)N/N=C/c1cccs1)c1cccc(Cl)c1Cl was read as H5N1 antiviral 2.7.
`O=C(CCn1c(=O)[nH]c2ccsc2c1=O)Nc1ccc(F)c(F)c1` gave H5N1 antiviral 1.6.
Screening CC1(C)C2CCC1(C)C(OC(=O)CSc1nc(N)cc(=O)[nH]1)C2 (configuration not stated) returned H5N1 antiviral 0.6.
`N/C(=N\OC(=O)c1ccc(Cl)c(Cl)c1)c1cccnc1` gave H5N1 antiviral inactive.
CCCCC(CC)C(=O)NCCCN1CCN(CCCNC(=O)C(CC)CCCC)CC1 (configuration not stated) was read as H5N1 antiviral inactive.
For S=c1nc(-c2ccccc2)oc2c1CCCC2 the results were H5N1 antiviral inactive.
c1ccc(-c2nnc3n2NC(c2ccc4c(c2)OCO4)S3)cc1 (configuration not stated) was read as H5N1 antiviral 0.5.
Screening CCN(CC)S(=O)(=O)c1cc(C(=O)NC2=NCCS2)ccc1Cl returned H5N1 antiviral inactive.
COc1cc(OC)cc(C(=O)Nc2ccccc2N2CCOCC2)c1 was read as H5N1 antiviral 1.1.
Screening CCC(C)(C)n1nnnc1CN(Cc1ccc(Cl)cc1)Cc1ccco1 returned H5N1 antiviral 3.8.
`O=C(OC(C(=O)NC1CCCC1)c1ccccn1)c1cccs1` (configuration not stated) gave H5N1 antiviral 0.1.
Screening CCOc1cc(S(=O)(=O)N2CCCCCC2)ccc1F returned H5N1 antiviral 0.2.
`Cn1c(SCc2c(F)cccc2Cl)nnc1-c1cnccn1` gave H5N1 antiviral 2.0.
For O=C(c1cc2nc(-c3ccccc3)cc(-c3ccccc3)n2n1)N1CCN(C(=O)c2ccco2)CC1 the results were H5N1 antiviral 0.1.
Cc1ccccc1Cn1c(Cc2ccccc2)nc2ccccc21 was read as H5N1 antiviral inactive.
Screening CC(CSc1nc2ccccc2s1)Cn1c(N2CCCC2)nc2c1c(=O)[nH]c(=O)n2C (configuration not stated) returned H5N1 antiviral 5.0.
Screening O=C(Cn1cccc1C(=O)c1ccccc1)NCc1ccccn1 returned H5N1 antiviral inactive.
`O=C(CCn1c(=S)oc2ccccc21)Nc1ccc2c(c1)OCCO2` gave H5N1 antiviral inactive.
Screening CCOC(=O)c1oc2ccccc2c1NC(=O)c1cccs1 returned H5N1 antiviral inactive.
For CC(=O)N1CCc2cc(S(=O)(=O)Nc3ccccc3N3CCN(C)CC3)ccc21 the results were H5N1 antiviral 1.3.
`O=C(Nc1nc2ccccc2s1)c1ccc(Cl)s1` gave H5N1 antiviral inactive.
For CCCS(=O)(=O)N1CCCC(C(=O)NCc2ccco2)C1 (configuration not stated) the results were H5N1 antiviral 1.0.
For CCOC(=O)CSc1nnc(CSc2nc3sc4c(c3c(=O)[nH]2)CCC4)n1C the results were H5N1 antiviral 0.7.
Screening CC(C)CCN1CC(C(=O)NC(C)C)CC1=O (configuration not stated) returned H5N1 antiviral 1.0.
Cc1nn2c(-c3ccccc3)nnc2c2ccccc12 was read as H5N1 antiviral 2.8.
`CCOC(=O)c1c(C)[nH]c(C)c1C(=O)COC(=O)c1ccc(Cl)c(S(N)(=O)=O)c1` gave H5N1 antiviral inactive.
For Cc1[nH]c(=O)c(C(=O)/C=C/c2ccccc2F)c2c1CCCC2 the results were H5N1 antiviral 4.3.
For N#CCCCN1C(=O)C(O)(CC(=O)c2ccc3c(c2)OCCO3)c2ccccc21 (configuration not stated) the results were H5N1 antiviral inactive.
Screening N#Cc1cc([N+](=O)[O-])cnc1NCC(O)CO (configuration not stated) returned H5N1 antiviral 0.4.
Screening COC(=O)C1=CN(C(C)C)C=C(C(=O)OC)C1c1cccc(OC)c1 returned H5N1 antiviral inactive.
Screening CCOC(=O)N1CC=C2C(C#N)=C(N)C(C#N)(C#N)[C@H](c3ccc(OCC)c(OCC)c3)[C@H]2C1 returned H5N1 antiviral 0.1.
`Cc1cc(Oc2ccccc2)nc(SCC(N)=O)n1` gave H5N1 antiviral 0.3.
For CC(=O)c1cccc(S(=O)(=O)N(Cc2cc3cc4c(cc3[nH]c2=O)OCCO4)CC2CCCO2)c1 (configuration not stated) the results were H5N1 antiviral 0.5.
For CCS(=O)(=O)N1CCC(C(=O)NCc2cccnc2)CC1 the results were H5N1 antiviral inactive.
For CCn1c(SCc2cccc(C(F)(F)F)c2)nnc1-c1ccco1 the results were H5N1 antiviral inactive.
For Cc1nc(Cl)sc1C(=O)O the results were H5N1 antiviral inactive.
Screening CCC(C)NC(=O)c1cc(-c2ccccc2O)on1 (configuration not stated) returned H5N1 antiviral 3.1.
`O=C(Nc1nccs1)c1cc(S(=O)(=O)N2CCCCC2)ccc1Cl` gave H5N1 antiviral 1.3.
`CCn1c(=S)[nH]c2nc3c(cc2c1=O)CCCC3` gave H5N1 antiviral 1.5.
`CC(C)(C)N1NC(=O)Nc2ccccc2C1=O` gave H5N1 antiviral inactive.
For CCOC(=O)c1sc(NC(=O)CSc2nnnn2-c2ccc(C)c(C)c2)nc1C the results were H5N1 antiviral inactive.
CN1C(=O)N(C)C(=O)C2(Cc3c(ccc4ccccc34)N(C)C2)C1=O was read as H5N1 antiviral inactive.
Cc1cccc(OCc2nnc(SCC(=O)N(C(C)C)C(C)C)n2Cc2ccco2)c1C was read as H5N1 antiviral inactive.
CCCOc1cc(C)nc(-c2ccccc2O)n1 was read as H5N1 antiviral inactive.
